Arbovirus anti: arbovirus infection inhibition; actives 0.37% (n = 200,000); arbovirus infection cell-based antiviral screen; inhibition, % at 10 µM; AID 1251;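 active = inhibition from about 30%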;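 note: bluetongue infection of BSR cells; cell survival read as ATP light after 72 h; 0% = infected wells without compound and 100% = uninfected wells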
RecA splice inh: Mtb RecA intein splicing inhibition; P9WHJ3; inhibition, %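 (about 9 µM by stock and volumes)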; AID 2221; actives 0.75% (n = 290,000); cell-free RecA intein splicing, fluorescence; in the data active = inhibition above about 30%; inconclusive = no clear call, values can overlap the other calls;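 note: 0% = vehicle wells and 100% = reference inhibitor control wells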
Target sequence (P9WHJ3 whole entry, looked up, canonical isoform): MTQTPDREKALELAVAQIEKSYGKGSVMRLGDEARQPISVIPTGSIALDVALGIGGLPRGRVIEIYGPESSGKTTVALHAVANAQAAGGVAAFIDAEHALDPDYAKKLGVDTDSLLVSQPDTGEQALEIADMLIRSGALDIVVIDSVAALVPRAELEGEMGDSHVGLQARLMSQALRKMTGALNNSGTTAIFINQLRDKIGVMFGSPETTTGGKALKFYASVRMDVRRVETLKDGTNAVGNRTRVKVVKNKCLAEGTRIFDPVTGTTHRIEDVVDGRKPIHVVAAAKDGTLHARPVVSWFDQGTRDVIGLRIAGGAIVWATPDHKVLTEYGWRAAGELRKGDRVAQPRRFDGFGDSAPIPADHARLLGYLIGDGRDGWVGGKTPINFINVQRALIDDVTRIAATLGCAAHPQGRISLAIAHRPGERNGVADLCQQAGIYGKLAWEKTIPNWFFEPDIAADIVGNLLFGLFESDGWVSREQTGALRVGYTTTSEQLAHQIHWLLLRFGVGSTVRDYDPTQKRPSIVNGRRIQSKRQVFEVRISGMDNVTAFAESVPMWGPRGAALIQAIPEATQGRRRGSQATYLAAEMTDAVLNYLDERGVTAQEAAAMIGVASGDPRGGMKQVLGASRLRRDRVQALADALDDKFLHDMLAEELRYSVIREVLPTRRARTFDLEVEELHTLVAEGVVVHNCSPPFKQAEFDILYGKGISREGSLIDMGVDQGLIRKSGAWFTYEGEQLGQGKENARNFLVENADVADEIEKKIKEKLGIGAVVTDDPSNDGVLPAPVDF
Mtb bLac sens: beta-lactam sensitization of Mtb H37Rv; M. tuberculosis H37Rv growth with meropenem, percent inhibition; hits of this screen are not shown here; inhibition, % at 25 µM; actives 0.27% (n = 330,000); AID 434955;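 active = about 74% or more and at least 40 points above the plate without the antibiotic, then above 30% in a dose series; inconclusive = first-round hits that could not be retested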;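 note: growth measured after seven days incubation then overnight dye step; 0% = bacteria only wells and 100% = bacteria with antibiotic; twin plates without the antibiotic show which effects depend on it; some results filed as inactive read as strong as hits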
YopH inh: blocks Yersinia enterocolitica YopH tyrosine phosphatase | fluorescence Ex485/Em525 | inhibition, %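 (about 10 µM by stock and volumes)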 | actives 0.16% (n = 140,000);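 active = inhibition of 50% or more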;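 note: controls were vehicle for no effect and minimum signal wells for full effect; inactives centre near -20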
Mtb H37Rv: M. tuberculosis H37Rv growth inhibitors, H37Rv strain (AID 1626); actives 0.95% (n = 220,000); M. tuberculosis H37Rv growth inhibition; higher % means a stronger effect; inhibition, % at 10 µM, or IC50 in µM where a hit was titrated;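 active = confirmed in a dose series; inconclusive = inhibition above 80% but not taken into the dose series; inactive = below 80% or under 30% at every dose of the series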;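 note: bacteria incubated seven days before Alamar blue readout; 0% = bacteria only wells and 100% = bacteria with antibiotic wells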
Arbovirus anti repeat: second read-out of Arbovirus anti, no call of its own (marks repeat the call); inhibition, %; measured here: 10K subset replicate screen; many hits read low in the repeat;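 first of two repeat runs on a subset; 0% = infected and 100% = uninfected wells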
* = called active by the depositor; ? = inconclusive; . = not tested or not shown. This is a subset (hit frequency here may not be typical).

SMILES	Arbovirus anti	RecA splice inh	Mtb bLac sens	YopH inh	Mtb H37Rv	others
Cc1ccccc1NCC(=O)N=Nc1c(O)[nH]c2ccc([N+](=O)[O-])cc12	.	2.9	4	.	-11%
CCNC(=O)NC(=O)C(C)OC(=O)c1cccnc1SC (centres undefined)	.	7.1	-10	-48	-5%
Cc1ccc(NC(=O)COC(=O)c2ccc(=O)n(Cc3ccccc3)n2)cc1F	.	-2.1	-2	.	.
OC(CN1CCOCC1)c1ccc(F)cc1 (centres undefined)	15	-1.1	0	.	0%
CC(C)n1cnc2cc(NCc3ccccc3O)ccc21	.	-5.4	1	.	-4%
O=C(NCC1CCCO1)[C@@H]1CSC2c3ccccc3C(=O)N21 (some centres undefined)	11	-0.4	7	-13	0%
COc1cccc(C(=O)Nc2cccc(NC(C)=O)c2)c1	-1	-2.3	-2	-42	-5%
O=C(Nc1ccc(Cl)cc1)N1CCOC12CCC1(CC2)OCCO1	6	-1.7	-2	.	6%
COC(=O)c1ccc(NC(=O)CNCc2ccncc2)cc1	7	0.3	3	-22	-4%
CCCOC(=O)Nc1c(C)cccc1C(C)C	7	-2.0	-2	.	3%
O=C(C1CCCN(S(=O)(=O)c2cccc3nsnc23)C1)N1CCc2ccccc2C1 (centres undefined)	-12	0.8	7	-40	.
Cc1[nH]n(-c2nc(-c3ccccc3F)cc(=O)[nH]2)c(=O)c1CCO	-4	-1.8	0	.	8%
CCc1ccccc1NC(=S)N(Cc1ccc(OC)cc1)CC1CCC(C(=O)O)CC1 (centres undefined)	5	0.6	4	.	-6%
CCCCc1cc(=O)oc2cc(OC(C)C(=O)NCC3CCC(C(=O)O)CC3)c(Cl)cc12 (centres undefined)	.	11	-11	.	.
O=C(Nc1cccc(-n2cnnn2)c1)C1CCCN(Cc2cccc(C(F)(F)F)c2)C1 (centres undefined)	.	-1.2	4	.	.
Cc1ccc(S(=O)(=O)NNC(=O)NC23CC4CC(CC(C4)C2)C3)cc1	3	0.2	?	-22	1%
O=c1c2cc([N+](=O)[O-])ccc2nc2n1CCCC2	.	-1.1	8	.	.
COCCCN(C(=O)c1cc2c(s1)CCC2)c1c(N)n(Cc2ccccc2)c(=O)[nH]c1=O	12	2.1	1	.	-2%
COc1nnc(-c2ccc(C)c(S(=O)(=O)N(C)C)c2)c2ccccc12	.	2.7	-3	.	.
O=C(Nc1ccc(S(=O)(=O)N2CCN(Cc3ccccc3)CC2)cc1)c1cnccn1	4	0.6	-1	-20	-2%
CCCCC1=CC2=CC(=O)C(C)(OC(=O)CC)C(=O)C2=CN1C1CCCCC1 (centres undefined)	.	-3.1	10	.	4%
O=C1OC(c2cccs2)=N/C1=C/c1ccc(-c2cccc(C(=O)O)c2)o1	13	.	.	.	5%
COc1cc2c(c(O)c1OC)-c1c(cc(OC)c(OC)c1O)[C@@H](OC(=O)c1ccccc1)[C@@](C)(O)[C@@H](C)[C@@H]2OC(C)=O	.	-3.0	.	.	8%
CCC1(C)Cc2ccccc2C(Nc2c(C)n(C)n(-c3ccccc3)c2=O)=N1 (centres undefined)	4	-1.0	-7	-21	-7%
Cc1c(NC(=O)C(C)c2ccc(CC(C)C)cc2)c(=O)n(-c2ccccc2)n1C (centres undefined)	-7	-0.4	-2	-5	-7%
O=C(NCCCN1CCCC1)c1ccc(CS(=O)(=O)c2ccc(Br)cc2)o1	-1	1.1	-2	-41	.	Arbovirus anti repeat=-6
Cc1cc(C(=O)Nc2c[nH]c(=O)[nH]c2=O)ccc1[N+](=O)[O-]	-5	2.2	-15	.	-1%
Oc1ccc(/C=N/Nc2nc(N3CCCC3)nc(N3CCCC3)n2)cc1O	-10	-6.7	8	.	-3%
CCCCC(=O)Nc1ccc2c(c1)nc(CCNC(=O)c1ccco1)n2C	.	2.0	0	.	.
O=C(O)CCN1CCOCC1	4	-2.9	-12	18	4%
O=C(O)c1cccnc1C(=O)c1ccccc1	.	3.8	1	.	.
CCn1nc(NC(=O)c2ccco2)c2cc3ccccc3nc21	4	-123	16	-40	-3%
CN(CC(=O)Nc1ccccc1Cl)C(=O)COC(=O)Cc1c(F)cccc1Cl	.	2.8	-6	.	.
CS(=O)(=O)c1ccc(Cl)c(S(=O)(=O)NCc2ccccc2)c1	-1	1.4	-2	7	-4%
CCOC(=O)c1cc(-c2ccccc2)sc1NC(=O)C(C)OC(=O)c1cccc(S(=O)(=O)N(C)C)c1 (centres undefined)	11	-0.9	8	-30	2%
CCC(=O)N1CCc2cc(S(=O)(=O)CCC(=O)Nc3nc(C)cs3)ccc21	2	-2.5	-7	-80	-11%
CS(=O)(=O)N(CC(=O)N1CCCC1)Cc1ccc(Cl)cc1	5	-3.1	-6	-9	0%
Cc1ccc(NC(=S)N(CCN(C)C)C(C)c2ccco2)c(C)c1 (centres undefined)	.	0.0	-6	.	-5%
C=CCOc1cccc(CNc2ccc3[nH]c(=O)[nH]c3c2)c1	-1	-3.2	5	.	-4%
CCN(CC)C(=O)CSc1nc(C)cc(C)c1C#N	-3	.	-1	.	-10%
C=CCN=c1scc(-c2ccccc2)n1/N=C/c1ccccn1	32*	5.7	87	-13	7%
Cc1cccc(NC(=O)c2oc(=O)c3ccccc3c2-c2ccccc2)c1C	-8	-0.4	1	-6	-5%
CC(=O)c1cccc(Nc2nc(=O)c3cccnc3s2)c1	0	-0.8	-3	1	-4%
COc1ccccc1C(=O)Nc1ccc(CN2CCCCC2)cc1	3	-1.2	-2	5	-12%
O=C(Nc1ccccc1N1CCN(C(=O)c2ccc(Cl)cc2)CC1)c1ccc(Br)cc1	1	1.7	14	-60	13%
COc1cc2c(cc1NC(=O)C(C)N1CCN(S(=O)(=O)c3ccc(C)c(C)c3)CC1)oc1ccccc12 (centres undefined)	3	-7.0	2	-11	-5%
Cc1ccnc2nc(C(=O)OCC(=O)NC(=O)NCc3ccco3)nn12	7	-0.4	0	.	-8%
COc1ccc2c3c([nH]c2c1)C(C)N(C(C)=O)CC3 (centres undefined)	.	-2.5	-3	.	.
O=C(NC1=NCCS1)c1cccc(OC(F)F)c1	7	1.4	3	.	1%
CC(C)(C)NC(=O)CCn1nc(-c2ccc(Cl)cc2)c2ccccc2c1=O	.	2.6	60	.	.

14 neighbouring records already listed:
SMILES	Arbovirus anti	RecA splice inh	Mtb bLac sens	YopH inh	Mtb H37Rv	others
CS(=O)(=O)c1ccc(Cl)c(S(=O)(=O)NCc2ccccc2)c1	-1	1.4	-2	7	-4%
CCOC(=O)c1cc(-c2ccccc2)sc1NC(=O)C(C)OC(=O)c1cccc(S(=O)(=O)N(C)C)c1 (centres undefined)	11	-0.9	8	-30	2%
CCC(=O)N1CCc2cc(S(=O)(=O)CCC(=O)Nc3nc(C)cs3)ccc21	2	-2.5	-7	-80	-11%
CS(=O)(=O)N(CC(=O)N1CCCC1)Cc1ccc(Cl)cc1	5	-3.1	-6	-9	0%
Cc1ccc(NC(=S)N(CCN(C)C)C(C)c2ccco2)c(C)c1 (centres undefined)	.	0.0	-6	.	-5%
C=CCOc1cccc(CNc2ccc3[nH]c(=O)[nH]c3c2)c1	-1	-3.2	5	.	-4%
CCN(CC)C(=O)CSc1nc(C)cc(C)c1C#N	-3	.	-1	.	-10%
C=CCN=c1scc(-c2ccccc2)n1/N=C/c1ccccn1	32*	5.7	87	-13	7%
Cc1cccc(NC(=O)c2oc(=O)c3ccccc3c2-c2ccccc2)c1C	-8	-0.4	1	-6	-5%
CC(=O)c1cccc(Nc2nc(=O)c3cccnc3s2)c1	0	-0.8	-3	1	-4%
COc1ccccc1C(=O)Nc1ccc(CN2CCCCC2)cc1	3	-1.2	-2	5	-12%
O=C(Nc1ccccc1N1CCN(C(=O)c2ccc(Cl)cc2)CC1)c1ccc(Br)cc1	1	1.7	14	-60	13%
COc1cc2c(cc1NC(=O)C(C)N1CCN(S(=O)(=O)c3ccc(C)c(C)c3)CC1)oc1ccccc12 (centres undefined)	3	-7.0	2	-11	-5%
Cc1ccnc2nc(C(=O)OCC(=O)NC(=O)NCc3ccco3)nn12	7	-0.4	0	.	-8%

Remaining list, next part
SMILES	Arbovirus anti	RecA splice inh	Mtb bLac sens	YopH inh	Mtb H37Rv	others
CC(C)N(Cc1ccccc1)C(=O)CSc1nccn1C	5	-1.3	8	.	0%
N#Cc1c(-c2ccc3c(c2)OCO3)cc[nH]c1=O	.	-2.6	-4	.	.
COC(=O)C1=C(O)C(C(=O)OC)C(c2ccc(C)cc2)C(C#N)(C#N)C1c1ccc(C)cc1 (centres undefined)	-2	-0.9	-3	-20	-3%
Nc1nonc1-n1nnc(C(=O)N/N=C/c2cccs2)c1CSc1ccccc1	.	-5.1	2	.	.
C/C(=C\C(=O)OCCCCCCCCC(=O)O)C[C@@H]1OC[C@H](C[C@@H]2O[C@H]2[C@@H](C)[C@H](C)O)[C@@H](O)[C@H]1O	.	3.9	-6	.	-10%
CCCSc1nsc(NC(=O)Nc2ccc(F)cc2F)n1	.	0.3	8	.	.
COc1ccccc1N1CCN(Cc2cc(=O)c(OCC(=O)NC(C)C)co2)CC1	.	0.8	-2	.	.
CCCCC(c1nnnn1C(C)C)N1CCN(C(=O)c2ccco2)CC1 (centres undefined)	.	10	3	.	.
COc1ccc2nc(NC(=O)C3CCN(S(=O)(=O)c4cccc5nsnc45)CC3)sc2c1	15	.	-14	-35	14%
Cc1cc(-c2ccc(C)c(S(=O)(=O)Nc3ccc(S(N)(=O)=O)cc3)c2)on1	.	-0.1	-12	.	.
CCn1c(SCC(N)=O)nnc1-c1ccc2c(c1)OCO2	6	-3.3	-3	.	-2%
CCO[C@@H]1OC(C(=O)N2CCN(Cc3ccccc3)CC2)=C[C@H](C2CC2)[C@H]1CCCO	0	0.9	-9	.	1%
O=C(c1ccco1)N1CCN(C(=O)c2cc3sccc3n2Cc2ccccc2)CC1	3	7.1	4	-15	0%
Cc1cc(C)c2cc(CN(CCO)C(c3nnnn3Cc3ccc(F)cc3)C(C)C)c(=O)[nH]c2c1 (centres undefined)	-23	.	.	-38	9%
Cc1onc(-c2ccccc2)c1C(=O)NNC(=S)NC(=O)/C=C/c1ccccc1	-20	2.2	?	-35	-9%
O=C(OCCN1CCOCC1)c1ccc(O)cc1	.	-0.7	-3	.	.
N/C(CC1CC1(Cl)Cl)=N\OC(=O)c1ccccc1 (centres undefined)	.	0.8	-5	.	2%
COc1ccc2nc(Cl)c(/C=N/Nc3ccccn3)cc2c1	-7	-0.2	-4	.	6%
N#CC1=C(N)S[C@H](C(=O)C23CC4CC(CC(C4)C2)C3)[C@H]1c1ccncc1	13	1.3	10	18	2%
CCn1cc(CN2CCCC(C(=O)c3cccc(OC)c3)C2)c(C)n1 (centres undefined)	-4	-0.6	1	.	0%
CNC(=O)/C(C#N)=C/c1c(N2CCCCCC2)nc2c(C)cccn2c1=O	.	-229	3	.	.
CCN1CCN(C(=O)/C=C/c2ccc(C)o2)CC1	3	-3.7	1	1	-2%
CCn1c(CNC(=O)c2cccc(C)c2)nnc1SCC(=O)Nc1cccc(OC)c1	-1	21	-4	-15	-8%
CCOC(=O)C(=O)N1c2ccccc2C(N(C(=O)C(=O)OCC)c2ccccc2)CC1C (centres undefined)	.	-0.4	0	.	0%
CCSc1nc(N)c(NC(=O)c2ccc(Br)o2)c(=O)[nH]1	.	-0.9	-13	.	.
COc1ccc(NC(=O)/C=C/c2ccccc2)c([N+](=O)[O-])c1	1	-0.8	-2	-25	8%
O=C(COc1ccc(C(=O)NCCc2ccccc2)cc1)Nc1ccccc1	-2	-6.0	63	-19	36%
N#Cc1cccc(C(=O)OCC(=O)NCc2ccco2)c1	.	-2.3	-18	.	.
COc1ccc2c(c1OC)C(=O)N1N=C(c3ccc(Cl)cc3)CC21 (centres undefined)	-3	0.4	-2	-39	8%
Cc1ccc(-n2c(-c3ccco3)nc3c(cnn3-c3ccc(C)cc3)c2=O)cc1	-2	2.7	0	-8	6%
CCCCC(=O)Nc1ccc2c3c(cccc13)C(=O)N2CC	-15	-4.4	-5	-49	11%
O=C(CSc1nnc(-c2ccccn2)o1)Nc1ccccc1Cl	.	-0.4	1	.	.
COC(=O)c1cccc(C23CC4(C2)[C@H](CN(CC2CCCCC2)[C@@H]4c2ccccc2)C3c2ccccc2)c1 (some centres undefined)	.	8.6	-7	.	-10%
NC(=O)C1CCN(CCC(=O)Nc2cccc(Cl)c2)CC1	-3	-1.0	-5	-32	2%
COc1ccc(CCNC(=O)CCCOc2ccc(Cl)cc2)cc1OC	.	1.3	-7	.	.
O=C(Nc1ccccc1)Nc1scc2c1c(=O)oc1ccccc12	.	0.6	-5	.	-8%
O=C(O)CSc1ccnc2cc(Cl)ccc12	.	1.2	-12	.	3%

Assay outcomes from PubChem.
